CSC inhib = blocks cancer stem cells; hit rate 1.1% among 300,000; cancer stem cell-like cells viability, luminescence; inhibition, % at 7.5 µM;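 active means mean at 75% or more and at least half the replicates too; inconclusive means mean and replicates disagree; tested in HMLE shEcad cells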;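 further: 0% = median of negative and 100% = median of positive control wells; the first replicate is given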
PABP FP inh = PABP-poly(A) binding inhibition; AID 2014; P11940; PABP-poly(A) RNA binding, fluorescence polarization; inhibition, % at 35 µM; hit rate 1% among 290,000;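 active means 50% or more with normal probe brightness, or confirmed in later tests; inconclusive means above 50% with abnormal brightness, or retests that disagree; inactive means below 50% or failed in later tests; about a fifth of its hits are not listed in these tables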;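 further: calls also rest on retests at 20 µM and on dose response follow-up; controls were probe without protein and protein plus probe with vehicle; some compounds called inactive have numbers as strong as hits; many hits fall short of the cut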
MT1-MMP act inh = inhibitors of human MT1-MMP activation; P50281; HT1080 RFP-PRO-GFP cells, GFP/RFP ratio fluorescence, overnight; percent of plate control window, DMSO zero; GFP/RFP ratio change, % at 20 µM; hit rate 0.061% among 360,000; AID 651647;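 active means GFP/RFP ratio change of at least 30% with cell ATP level not reduced by more than half and red fluorescence within 50% of control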; further: strong numbers were not always called active
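Read-out: GFP/RFP fluorescence ratio; Test system: RFP-PRO-GFP reporter HT1080 cells; Compound dosing: single-point 20 µM compound, 1% DMSO; Times: overnight compound exposure at 37 °C.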
eIF4H FP inh = inhibitors of RNA binding by human eIF4H; eIF4H fluorescence polarization binding assay; inhibition, % at 35 µM; hit rate 0.94% among 290,000; AID 2012;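 active means 50% or more with normal probe brightness, or confirmed in later tests; inconclusive means above 50% with abnormal brightness, or retests that disagree; inactive means below 50% or failed in later tests; about a fifth of its hits are not listed in these tables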;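 further: calls also rest on retests at 20 µM and on dose response follow-up; 0% = protein and probe with vehicle and 100% = probe without protein; strong numbers were not always called active; many hits fall short of the cut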
Rce1 inh = blocks yeast Ras-converting enzyme | Q03530 | yeast membranes, quenched prenylated peptide cleavage fluorescence | calls only | hit rate 0.27% among 290,000 | AID 2563;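 active means fall in fluorescence gain of 50% or more versus controls, with final raw signal at or below 3038400; inconclusive means same 50% fall but final raw signal above 3038400; inactive means fall in fluorescence gain under 50%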;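 further: plate controls were neutral control wells for no effect and wells lacking membranes for full effect; tested at 10 µM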
Target sequence (Q03530 whole entry, looked up): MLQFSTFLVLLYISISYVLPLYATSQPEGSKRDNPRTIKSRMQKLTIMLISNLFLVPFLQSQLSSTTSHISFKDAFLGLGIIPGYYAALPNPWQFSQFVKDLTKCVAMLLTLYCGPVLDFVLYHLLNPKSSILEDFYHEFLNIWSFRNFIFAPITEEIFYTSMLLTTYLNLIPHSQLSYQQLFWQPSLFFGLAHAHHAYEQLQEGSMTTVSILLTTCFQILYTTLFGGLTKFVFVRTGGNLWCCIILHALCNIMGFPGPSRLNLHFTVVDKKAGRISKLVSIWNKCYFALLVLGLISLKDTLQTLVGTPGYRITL
HIV Env fusion = inhibitors of HIV Env-mediated cell fusion; hit rate 1.1% among 360,000; AID 651610; inhibition, % at 12.3 µM; HeLa-JRFL Env/CEM21 cell fusion, luciferase;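 active means mean replicate inhibition score of at least 50 and every replicate individually at or above 50; inconclusive means only one of the two criteria met; inactive means mean below 50 and not all replicates reaching 50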;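 further: 0% = plate neutral controls and 100% = maraviroc near 300 nM; one replicate is shown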
Yeast UUG start = alters start codon recognition fidelity in yeast | S. cerevisiae UUG-firefly luciferase reporter, luminescence/redox ratio | activity score, % at 18.7 µM | hit rate 0.13% among 350,000 | AID 602363;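 active means replicate mean at a twofold rise or more, about +100% in these data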;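 further: firefly luciferase made from a UUG start codon reports start codon fidelity; reporter light over untreated wells divided by growth signal over untreated wells; some hits fall short of that in this replicate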
eIF4H FP inh retest = recorded beside eIF4H FP inh, whose call it bears; inhibition, %; compound at 20 µM; confirmation average;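 mean of two retest wells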
PABP FP inh retest = also measured in PABP FP inh; calls as there; inhibition, %; compound at 20 µM; confirmation repeats;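 mean of two retest wells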
MT1-MMP act inh RFP = second read-out of MT1-MMP act inh, no call of its own (marks repeat the call); RFP signal change, %; measured here: RFP expression control read;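 0 = vehicle wells; hits needed this value within 50% of zero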
Active calls of the source: *; i = inactive; ? = inconclusive; . = no result given. Not all compounds are listed (hit frequency here may not be typical).

SMILES	CSC inhib	PABP FP inh	MT1-MMP act inh	MT1-MMP act inh RFP	eIF4H FP inh	Rce1 inh	HIV Env fusion	Yeast UUG start	others
CN1CCN(C(=O)C2CCC(C)(C(=O)O)C2(C)C)CC1 (centres undefined)	13	-4	1	5	6	i	3	.
O=C1CC(N2CCN(c3ccccc3)CC2)C(=O)N1c1ccc(Cl)cc1 (centres undefined)	-11	-9	2	4	-4	i	6	0
CC12CCC(C(=O)Nc3ccccc3Cl)([C@H](Br)C1=O)C2(C)C (some centres undefined)	16	-1	3	3	12	i	8	.
O=[N+]([O-])c1ccc(N2CCN(c3ccccc3F)CC2)c(S(=O)(=O)N2CCOCC2)c1	-1	-7	3	-2	2	i	-45	.
CCOc1ccccc1C(=O)Nc1cc(Cl)ccc1O	.	-4	-1	-9	2	i	19	-7
COCCNC(=O)/C(C#N)=C/c1cc(Br)c(O)c(OC)c1	-2	?	-14	0	-11	i	-8	.
Nc1nonc1-n1nnc(C(=O)N/N=C/c2ccco2)c1CSc1ccc(Cl)cc1	.	.	0	-3	.	.	13	1
O=C(CC(Cc1ccccc1)C(=O)O)Nc1ccc(Cl)c(Cl)c1 (centres undefined)	-1	7	-6	-4	3	i	10	9
O=C(c1ccc2c(=O)n(Cc3ccco3)c(=S)[nH]c2c1)N1CCN(c2ccccc2)CC1	26	4	-2	-1	8	.	.	9
CC1CCN(CC(=O)N2CCCc3c2c(=O)oc2ccc(OCc4ccccc4)cc32)CC1	1	1	3	-5	-9	i	.	3
Cc1nc2ccccc2c(C(=O)O)c1-c1ccccn1	.	.	-1	2	.	.	-5	-7
C#Cc1ccc([C@@H]2C=C(C(=O)NC3CC3)O[C@H](OCCCCO)C2)cc1	-4	-10	0	1	-8	i	-23	-8
O=C(Nc1nc2c(s1)CCCC2)Oc1ccccc1	4	5	4	5	-5	i	.	-17
CCN(CCCNC(=O)CNC(=O)c1nn(-c2ccc(OC)cc2OC)c(=O)c2ccccc12)c1cccc(C)c1	5	-3	-5	-7	1	i	11	-14
CCC(Oc1nc2ccccc2nc1-c1ccccc1NC(C)=O)C(=O)c1ccccc1 (centres undefined)	16	2	.	.	-20	i	-28	-18
CCN(CC)C(=O)C1=C(C)N(Cc2ccc(F)cc2)C(=O)C(CC(=O)NCc2cccs2)C1 (centres undefined)	.	.	6	4	.	.	-6	-9
Cc1cccc(OCCNc2ccc(C(F)(F)F)cc2[N+](=O)[O-])c1	1	-3	6	5	2	i	-20	.
COCCN1C(=O)N[C@@H](c2cccs2)C(C(=O)OC)=C1C	-9	5	0	3	16	i	6	-23
CC(CNC(=O)COc1ccccc1)OC(=O)Nc1ccc(Cl)c(Cl)c1 (centres undefined)	14	-5	0	-1	-13	i	.	-3
Cc1cccc(NCc2cc(Cl)ccc2O)n1	6	-6	3	-4	-5	i	.	-24
COC(=O)/C=C1\NCCSC1=O	-1	-9	2	5	-5	i	-53	-17
CCOC(=O)c1nnc(-c2ccccc2)nc1Oc1ccc(Cl)cc1	.	0	4	7	-10	i	.	-11
COc1cc(/C=C(/C#N)c2nc3ccccc3[nH]2)ccc1Oc1ncccc1[N+](=O)[O-]	9	7	-5	-2	18	i	.	-37
Cc1cccc(OCc2nnc(SCn3nnc4ccccc4c3=O)o2)c1	-1	-7	0	1	-11	i	-39	12
CN(C)CCCNC(=O)/C(=C\c1ccc(-c2ccc(Br)cc2)o1)NC(=O)c1ccccc1	14	0	-8	-9	6	i	-12	8

Next entries follow.
SMILES	CSC inhib	PABP FP inh	MT1-MMP act inh	MT1-MMP act inh RFP	eIF4H FP inh	Rce1 inh	HIV Env fusion	Yeast UUG start	others
COCCCN1C(=O)/C(=C/c2ccc(CNS(=O)(=O)c3ccccc3)o2)C(C(=O)OC)=C1C	-4	12	-13	3	-3	i	13	-7
CCc1cc(-c2nnn(-c3cc(C(C)C)ccc3C)c2CC)ccc1-c1cn(CCc2c[nH]c3ccccc23)nn1	.	.	-7	-12	.	.	84*	-7
COc1cc(/C(C)=C/c2ccccc2)c2c(c1)oc1ccccc12	.	-3	.	.	-1	i	.	.
Cc1ccc(NC(=O)CN(C)CC(=O)Nc2ccc3c(c2)OCO3)cc1	.	.	-1	0	.	.	0	-12
CCC(=O)c1ccc(OCC(=O)OCC(=O)NC2CCCCCCC2)cc1	.	7	1	3	-2	i	-255	13
CC1(c2ccc3ccccc3c2)NC(=O)NC1=O (centres undefined)	-6	1	1	0	-1	i	7	-1
COc1cc(/C=N/NC(=O)C2C3CCCCC32C)cc(Br)c1O (centres undefined)	-3	-7	1	1	-10	i	-58	19
O=C(Cn1nc(-c2ccc3c(c2)OCCO3)ccc1=O)Nc1ccc(-n2cnnn2)cc1	-2	-5	0	6	4	i	7	.
CCOC(=O)C(=O)Nc1cc(C)nn1-c1nc2ccccc2[nH]1	-15	1	4	7	11	i	0	-10
COc1ccc(NC(=S)N2CCN(C(=O)c3ccco3)CC2)cc1OC	-1	-11	3	5	-1	i	.	-23
CC(=O)NC(c1ccc(N(C)C)cc1)c1cc(Cl)c2cccnc2c1O (centres undefined)	.	.	2	-8	.	.	45	-39
O=C(CCCn1c(SCc2ccccc2F)nc2ccccc2c1=O)NCC1CCCO1 (centres undefined)	-1	6	-3	-8	3	i	-5	13
Cc1nonc1C1CCCN1Cc1cn[nH]c1-c1ccc(-c2ccccc2)cc1 (centres undefined)	41	-9	-5	-7	-1	i	12	.
NC(=O)C1CCN(Cc2nc3ccccc3c(=O)[nH]2)CC1	-20	-1	2	-2	-2	i	-21	-11
O=C(CCn1cccn1)Nc1ccc(-c2ccno2)cc1	5	10	3	3	-1	i	-4	-16
O=C(Nc1ccccc1N1CCOCC1)c1ccccc1NS(=O)(=O)c1ccc(F)cc1	.	7	1	-1	10	i	?	-11
CN(CC(=O)Nc1ccncc1)S(=O)(=O)c1ccc(Br)cc1	.	3	0	-5	2	i	28	-7
CC(C)(C)C(=O)C1=C(O)C(=O)N(c2ccccc2)C1c1ccccc1 (centres undefined)	0	0	-3	0	82	i	3	-14	eIF4H FP inh retest=4;PABP FP inh retest=12
CSc1nc(N)c2c(C)c(C)sc2n1	.	1	8	8	2	i	-18	.
CC(C)(C)c1ccccc1NC(=O)Cn1c(=O)cnc2ccccc21	-13	-1	-1	6	-8	i	-6	.
COc1cc(C)nc(Oc2ccc(=O)n(C)n2)n1	.	-6	-2	3	-9	i	.	-11
CC(=O)NCCNC(=O)C1(C)Cc2c(-c3ccc(NC(C)=O)cc3)ccnc2O1 (centres undefined)	.	.	4	5	.	.	-9	-3
COc1ccccc1C(=O)OCC(=O)c1ccc(CNC(C)=O)s1	-2	.	-3	1	.	.	.	-28
COc1ccc(C2=CC(c3sccc3C)n3nnnc3N2)cc1 (centres undefined)	-7	4	-38	-5	-3	i	.	-5
O=C(COc1cc(F)ccc1[N+](=O)[O-])Nc1ccc2c(c1)OCO2	0	.	2	3	.	.	.	-13

Grouped by structure, those above containing an aryl thioether with sulfur outside any ring (four)
SMILES	CSC inhib	PABP FP inh	MT1-MMP act inh	MT1-MMP act inh RFP	eIF4H FP inh	Rce1 inh	HIV Env fusion	Yeast UUG start	others
Nc1nonc1-n1nnc(C(=O)N/N=C/c2ccco2)c1CSc1ccc(Cl)cc1	.	.	0	-3	.	.	13	1
Cc1cccc(OCc2nnc(SCn3nnc4ccccc4c3=O)o2)c1	-1	-7	0	1	-11	i	-39	12
O=C(CCCn1c(SCc2ccccc2F)nc2ccccc2c1=O)NCC1CCCO1 (centres undefined)	-1	6	-3	-8	3	i	-5	13
CSc1nc(N)c2c(C)c(C)sc2n1	.	1	8	8	2	i	-18	.

Part of the list above in order of heavy-atom count, highest first:
SMILES	CSC inhib	PABP FP inh	MT1-MMP act inh	MT1-MMP act inh RFP	eIF4H FP inh	Rce1 inh	HIV Env fusion	Yeast UUG start	others
CC(=O)NCCNC(=O)C1(C)Cc2c(-c3ccc(NC(C)=O)cc3)ccnc2O1 (centres undefined)	.	.	4	5	.	.	-9	-3
Cc1ccc(NC(=O)CN(C)CC(=O)Nc2ccc3c(c2)OCO3)cc1	.	.	-1	0	.	.	0	-12
COc1cc(C)nc(Oc2ccc(=O)n(C)n2)n1	.	-6	-2	3	-9	i	.	-11

Returning to the listing; the 3 compounds before the break are reprinted first.
SMILES	CSC inhib	PABP FP inh	MT1-MMP act inh	MT1-MMP act inh RFP	eIF4H FP inh	Rce1 inh	HIV Env fusion	Yeast UUG start	others
COc1ccccc1C(=O)OCC(=O)c1ccc(CNC(C)=O)s1	-2	.	-3	1	.	.	.	-28
COc1ccc(C2=CC(c3sccc3C)n3nnnc3N2)cc1 (centres undefined)	-7	4	-38	-5	-3	i	.	-5
O=C(COc1cc(F)ccc1[N+](=O)[O-])Nc1ccc2c(c1)OCO2	0	.	2	3	.	.	.	-13
O=C(CCNC(=O)c1ccc(Br)cc1)NCC1COc2ccccc2O1 (centres undefined)	-4	-16	-1	1	2	i	-28	-20
CC(C#N)(NC(=O)CN1CCN(S(=O)(=O)c2ccccc2Cl)CC1)C1CC1 (centres undefined)	-13	.	1	2	.	.	.	3
CC1(C)CN(C(=S)Nc2ccc(F)cc2F)C1=O	-18	11	1	2	-8	i	-7	-11
Nc1cccnc1Sc1cc(Cl)cc(Cl)c1	-19	12	-3	3	6	i	-39	4
CCN(CC)S(=O)(=O)c1ccc(N2CCN(C)CC2)c(NC(=O)Nc2ccc(C)cc2)c1	28	9	1	-2	-4	i	-21	-2
COc1ccc(CNc2ccc(Br)cc2)cc1	.	-15	2	1	6	i	-9	.
COc1ccc(CN(C(=O)/C=C/c2ccco2)C2CCS(=O)(=O)C2)cc1 (centres undefined)	-6	0	-3	3	32	i	1	.
CC(C)Cn1c(N)c(C(=O)CSc2n[nH]c(N)n2)c(=O)n(C)c1=O	.	.	-8	-3	.	.	-2	9
CCSc1nnc(N(CCC(=O)O)CCC(=O)O)s1	.	-15	-1	-3	0	i	-22	-13
Cc1ccc(C(=O)N/C(=C/c2ccco2)C(=O)N2CCC(C)CC2)cc1	-6	5	-9	5	55	i	6	9	eIF4H FP inh retest=-1;PABP FP inh retest=31
COc1ccc(NC(=O)CCC(=O)N(Cc2ccc(OC)c(OC)c2)c2nccs2)c(OC)c1	-24	-2	2	-2	-1	i	23	.
Cc1cc(C)nc(NC(=O)c2cccc([N+](=O)[O-])c2C)n1	-6	1	3	2	7	i	.	-14
Cc1ccc(CSCC(=O)Nc2ccccc2F)cc1	3	-16	0	4	4	i	5	-1
Cc1c(OCc2nn[nH]n2)ccc2c(-c3ccccc3)cc(=O)oc12	.	8	6	9	5	i	-3	-29

Screens (PubChem BioAssay)
